# Screening data (PubChem BioAssay)
# Sa helicase inh – blocks Staphylococcus aureus DNA helicase; purified S. aureus helicase, fluorescence unwinding assay; about half of the hits fall short of the stated cut; inhibition, %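 (tested at about 80 µM)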; 0.05% of 120,000 active;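 active means both duplicates at 50% or more, or one of them with a favoured structure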;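 further: 0% = mean of negative control wells and 100% = mean of positive control wells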
# MgrA-DNA mod – alters Staphylococcus aureus MgrA binding to DNA; fluorescence polarization; inhibition, %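 (about 10 µg/mL by stock and volumes)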; 0.13% of 84,000 active; AID 602314;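 active means above 50% in either of two replicates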;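 further: 0% = protein plus DNA without compound and 100% = DNA alone without protein; higher means less MgrA bound to DNA so lower polarization; one replicate is shown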
# Active calls of the source: *; x = no result given. A portion of the library. The share of hits here may be higher or lower than overall.
# Below each compound – Sa helicase inh	MgrA-DNA mod
O=C(O)c1ccccc1OCC(=O)N1CCCC1
 : 3	-1.4
c1cncc(C2SCCCS2)c1
 : x	-0.9
O=C1c2ccccc2C(=O)N1CN1CCN(Cc2csc3ccccc23)CC1
 : x	-1.4
CC(C)(C)C(=S)Nc1cccc(Cl)c1
 : x	-1.0
CC1CCCN(C(=O)CCNS(=O)(=O)c2ccc3c(c2)c(=O)n(C)c(=O)n3C)C1 (configuration not stated)
 : 9	-1.4
CC(C)C(NC(=O)c1ccc(F)cc1)C(=O)Oc1ccc(F)cc1 (configuration not stated)
 : -15	0.8
O=C1C=CC(=O)N1c1ccccc1F
 : 18	-10
Cc1ccc(NC(=O)Cn2c(C)c3cnn(-c4ccccc4)c(=O)c3c2C)cc1
 : 0	-0.3
COc1ccccc1C(=O)Oc1nnc2c3ccccc3cnn12
 : 0	1.4
Cc1cc(C(=O)Cn2cnnc2C#N)c(C)n1-c1ccc(OC(F)(F)F)cc1
 : 29	x
COc1ccc(CN2CCCN(Cc3ccc(OC)cc3)C2c2ccc(F)cc2)cc1
 : x	-1.3
COCC(=O)Nc1ccccc1C(N)=O
 : 4	-0.8
O=C(CCC(=O)N1CCCC1)Nc1nc(-c2cc3cc(Br)ccc3oc2=O)cs1
 : -2	-0.1
COC(=O)c1ccc(COC(=O)c2ccc(OC)c(OC)c2)cc1
 : 1	0.1
COc1ccc(OCC(=O)N(Cc2nc(-c3ccccc3)no2)C2CCCCC2)cc1
 : 9	-1.2
COc1ccc(C(=O)Oc2c(C)occc2=O)cc1
 : 16	x
O=C(Nc1ccn(Cc2ccccc2)n1)c1ccccc1
 : 23	4.2
COc1ccc2c(c1)N(C[C@H](C)CN(C)C)c1ccccc1S2
 : x	0.2
Cc1cc(C)c2nc(NC3=NCCCCC3)sc2c1
 : 4	x
N#CCSc1nc2cc(C(F)(F)F)ccc2n1Cc1ccccc1
 : 3	x
Cc1nc2c(-c3ccccc3)nn(-c3ccccc3)c2s1
 : -18	x
O=C(NC(c1ccccc1Cl)c1ccc2cccnc2c1O)c1ccccc1 (configuration not stated)
 : 15	x
CCN(Cc1ccccc1)C(=O)N1CCOCC1
 : 3	-0.2
Cc1onc(-c2ccccc2)c1C(=O)On1c(-c2ccccc2)nc2ccccc2c1=O
 : x	1.3
C=CCNC(=O)Cn1nnc(-c2ccc(C)cc2)n1
 : 30	x
Cc1ccnc2nc(C(=O)OCC(=O)NCc3cccc(Cl)c3)nn12
 : -1	x
O=C(C(Cc1ccccc1)n1cccc1)N1CCN(c2ccccc2)CC1 (configuration not stated)
 : -27	x
O=C(CN1C(=O)c2ccccc2C1=O)OCC(=O)c1ccc[nH]1
 : 7	x
COc1ccc(Br)cc1C(=O)Nc1ccc(-c2nc3ccccc3o2)c(O)c1
 : x	-1.1
CCCn1cc(S(=O)(=O)CC(=O)Nc2ccccc2)c2ccccc21
 : 23	x
Cc1ccc2c(COC(=O)C3COc4ccccc4O3)cc(=O)oc2c1 (configuration not stated)
 : 6	x
Cc1ccc(C23CC4CC(CC(CN)(C4)C2)C3)cc1C
 : 6	0.6
CC(C)COC(=O)Nc1ccccc1I
 : -3	0.8
CCOc1ccc2[nH]c(=O)c(CN(CC3CCCO3)C(=O)N(CC)CC)cc2c1 (configuration not stated)
 : 14	0.5
CC(C)(C)c1ccc(COc2cccnc2N)cc1
 : x	-0.9
Cc1csc(-c2coc3cc(OC(=O)C(C)NC(=O)OCc4ccccc4)cc(C)c3c2=O)n1 (configuration not stated)
 : x	0.0
CC1CN(CN2C(=O)CCC2=O)CC(C)O1 (configuration not stated)
 : 3	2.1
CCn1c(C)c(CCC(=O)Nc2cccc(OC)c2)c(=O)n2nc(-c3ccccc3OC)cc12
 : -5	x
CN(c1ccccc1C(=O)NC(C)(C)C)S(C)(=O)=O
 : 7	2.6
C=CCc1cccc(C(=O)O)c1O
 : x	-8.1
CCOC(=O)c1c(C)n(C)c2ccc(OC(=O)c3ccccc3Br)cc12
 : x	2.4
COc1ccccc1N(CCCN1C(=O)c2cccc3cccc(c23)C1=O)C(=O)c1cccc([N+](=O)[O-])c1
 : x	-0.9
O=C(CSc1nnc2ccccn12)Nc1ccc(N2CCOCC2)cc1
 : -1	x
CCN1CCc2c(OCC(=O)NC3CCCCC3)cccc2C1=O
 : 1	x
CCOC(=O)N1CCC(NC(=O)c2ccc3c(c2)N(CC)C(=O)c2ccccc2S3(=O)=O)CC1
 : 16	x
N#CCc1ccc(NC(=O)c2ccccc2C(=O)O)cc1
 : 22	x
COc1ccc(C(=O)N(CCCN2C(=O)c3cccc4cccc(c34)C2=O)c2ccccc2OC)cc1
 : x	-1.5
COc1ccc(Cn2c(=O)c3cccnc3n(Cc3ccc(C)cc3)c2=O)cc1
 : -28	x
CC1CCC2(CC1)NC(=S)N(C)N2 (configuration not stated)
 : -1	x
O=C(Nc1nnc(CCS(=O)(=O)c2ccc3ccccc3c2)s1)c1ccccc1Cl
 : x	-2.7
O=C1NC(c2ccc3c(c2)OCO3)Nc2ccc([N+](=O)[O-])cc21 (configuration not stated)
 : x	1.9
O=C(CSc1nnc(-c2ccccc2)o1)c1ccc2c(c1)OCCO2
 : 6	0.6
O=c1[nH]c(=O)n(C2OC(CO)C(O)C2O)cc1Br (configuration not stated)
 : 4	x
C(=NN1CCN(c2ccccn2)CC1)c1cccc2ccccc12
 : 34	x
COc1ccc(/C(C)=N/O)cc1
 : -8	-0.8
CN(C)CCN(Cc1ccco1)C(=O)Cn1nc(Cc2ccncc2)c2ccccc2c1=O
 : 2	11
Cc1ccc(-n2nnnc2-c2ccc3ccccc3n2)cc1
 : 12	x
Cc1ccc(N2C(=O)C3SC(N)=C(C#N)C(c4ccco4)C3C2=O)cc1 (configuration not stated)
 : 13	1.2
O=c1[nH]c2ccc(S(=O)(=O)N3CCN(c4ccccc4)CC3)cc2[nH]c1=O
 : 32	x
Cc1ccc(-n2c(SC3CCOC3=O)nc3ccccc32)cc1 (configuration not stated)
 : 7	x

# Continuation.
# Below each compound – Sa helicase inh	MgrA-DNA mod
COc1ccccc1CNC(=O)c1ccc2c(=O)n3c(nc2c1)CCCCC3
 : 11	x
c1ccc2cc(OCCN3CCOCC3)ccc2c1
 : -15	1.1
O=C(Cn1cc(C=NO)c2ccccc21)N1CCOCC1
 : 12	x
COc1ccc(CC2SC(=Nc3ccc(Br)cc3)NC2=O)cc1 (configuration not stated)
 : 9	x
N#Cc1ccc(OCC(F)(F)C(F)F)cc1C#N
 : -5	x
CC(C)c1ccccc1NC(=O)COC(=O)COc1ccc(Cl)cc1
 : -13	-2.1
COc1ccccc1C(=O)CSc1nnnn1-c1ccc(C)cc1C
 : -12	x
Clc1ccc(Cc2nc(-c3ccc(Cl)cc3)cs2)cc1
 : x	-3.3
CC(Sc1nnnn1C)C(=O)c1ccc(Cl)cc1 (configuration not stated)
 : -4	-1.9
Cc1cc(N2CCC(C(N)=O)CC2)nc(-c2ccccc2)n1
 : 6	-5.0
Cn1c(Cn2c(=O)sc3ccccc32)nnc1SC1CCCC1
 : -18	x
FC(F)(F)c1cc(-c2cccnc2)n[nH]1
 : x	-1.8
CCC(C)c1ccc(OCC(=O)Nc2ccc(NC(=O)c3ccco3)cc2)cc1 (configuration not stated)
 : -3	2.6
CCn1c(SC/C(O)=C(\C(=O)OC)c2nc3ccccc3[nH]2)nnc1-c1ccccc1OC
 : -7	x
CN(C)C1CCS(=O)(=O)C1 (configuration not stated)
 : 7	-0.1
Clc1ccccc1COc1ccccc1-c1nnco1
 : 2	x
CCOC(=O)Cc1ccc(NCc2ccc(Cl)cc2)cc1
 : 11	x
CCOC(=O)CN1CC23C=CC(O2)C(C(=O)Nc2ccc4c(c2)OCO4)C3C1=O (configuration not stated)
 : 19	x
CC1(C)O[C@@H]2C[C@H]3[C@@H]4C[C@H](F)C5=CC(=O)C=C[C@]5(C)[C@H]4[C@@H](O)C[C@]3(C)[C@]2(C(=O)CO)O1
 : x	3.9
Cc1cc(C)c(C#N)c(SCC(=O)C2CC2)n1
 : 15	-5.9
Cn1c(SCC(=O)O)nc2cc(C(F)(F)F)cnc21
 : x	-3.2
CC(C)Nc1nc(NC(C)C)nc(N(C)C#N)n1
 : 6	x
Cc1ccc2oc(=O)n(CC(=O)OC(C)C)c2c1
 : -28	x
COc1ccc(S(=O)(=O)N2CCN(CCO)CC2)cc1
 : 16	x
COc1cc(C(=O)Nc2c[nH]c(=O)[nH]c2=O)ccc1OC(C)=O
 : 0	x
Cc1cc(C(=O)O)c(C)n1-c1ccccc1
 : -7	x
CC(C)(C)c1cc(/C=C2\SC(=S)NC2=O)cc(C(C)(C)C)c1O
 : 21	1.6
Cc1ccc2nc(SCc3nc4ccccc4c(=O)n3CC#N)[nH]c2c1
 : -67	x
CCCSc1ncnc2sc3c(c12)CCCC3
 : -10	0.9
Cc1cc(C)nc(SC2=CS(=O)(=O)c3ccccc32)n1
 : 18	-0.8
FC(F)(F)c1ccc(-c2n[nH]c(=S)o2)cc1
 : x	1.8
CC(=O)N1N=C(c2ccccc2)OC12CCCC2
 : 12	x
O=C(Nc1ccccc1)Nc1c[nH]c2ccccc12
 : -3	x
CC(=O)NC(=O)c1cc2cc(Br)ccc2oc1=Nc1cccc(C#N)c1
 : x	-1.9
O=C1c2ccccc2C(=O)N1Cc1nc2ccccc2c(=O)n1CCN1CCOCC1
 : -16	3.0
Cc1ccc(S(=O)(=O)N2CCC[C@H]2C(=O)Nc2ccc(-c3nnc4n3CCCCC4)cc2)cc1
 : 13	x
C=CCN1C(=O)C(C(C)CC)NC1=S (configuration not stated)
 : 6	0.3
CCc1ccc(OCC(=O)N(C)C2CCS(=O)(=O)C2)cc1 (configuration not stated)
 : 20	-0.8
O=C(CCOc1ccccc1)OCCN1CCCC1=O
 : -2	-0.6
CC(=O)n1cc(Nc2ccccc2O)c2ccccc21
 : -1	x
O=C(O)Cn1c(Cc2ccccc2)nc2ccccc21
 : -18	x
CC1=NN(c2cccc(SC(F)F)c2)C(=O)C1
 : 7	x
CC1CCCCC1NC(=O)CN1C(=O)c2cccc(N)c2C1=O (configuration not stated)
 : -20	x
O=C(Cc1cccs1)Nc1ccc2c(c1)C(=O)OC2
 : -2	x
O=C(NC(=O)c1c(Cl)cccc1Cl)Oc1ccc(C(F)(F)F)cc1
 : x	1.1
COc1ccc(C2C/C(=N/O)C(C)C(c3ccc(OC)cc3)N2)cc1 (configuration not stated)
 : x	-3.0
COc1ccc(NC(=S)NNC(=O)CSCc2cccc3ccccc23)cc1
 : x	4.6
CS(=O)(=N/C=C(\C#N)C(=O)c1ccco1)c1ccc(Cl)cc1 (configuration not stated)
 : 22	x
C/C(Nc1ccc(C)cc1)=C1/CCOC1=O
 : x	2.0
O=C(O)CCC1CC(=O)Nc2ccccc21 (configuration not stated)
 : 10	x
CSc1ccc(CCNC(=O)c2ccc(CS(=O)c3cccc(C)c3)o2)cc1 (configuration not stated)
 : 12	x
O=C(COC(=O)C1=COCCO1)Nc1ccccc1
 : -6	x
Cc1cc(-c2ccc(S(=O)(=O)N(C)C3CCCCC3)s2)on1
 : 14	x
COc1cccc(NC(=S)Nc2ccccc2)c1
 : -7	0.2
CCCCOc1ccc(C(=O)Oc2cc(C(=O)OC)nn2C)cc1
 : 9	-0.2
Cc1ccc(CNC(=O)c2cc(-c3ccccc3)n[nH]2)cc1
 : -19	x
COc1c2ccoc2cc2oc(=O)ccc12
 : x	-1.4
O=C(COC(=O)CCc1c[nH]c2ccccc12)Nc1cc2[nH]c(=O)[nH]c2cc1Br
 : -12	x
O=C(NCC1CCCO1)c1ccccc1NC(=O)C1CC1 (configuration not stated)
 : 15	-1.6
COc1ccc(Cl)cc1S(=O)(=O)N1CCN(C(=O)c2ccco2)CC1
 : -3	x

# Arranged by molecular weight (ascending): part of the list above.
# Below each compound – Sa helicase inh	MgrA-DNA mod
C=CCN1C(=O)C(C(C)CC)NC1=S (configuration not stated)
 : 6	0.3
C/C(Nc1ccc(C)cc1)=C1/CCOC1=O
 : x	2.0
O=C(O)Cn1c(Cc2ccccc2)nc2ccccc21
 : -18	x
O=C(CCOc1ccccc1)OCCN1CCCC1=O
 : -2	-0.6
CSc1ccc(CCNC(=O)c2ccc(CS(=O)c3cccc(C)c3)o2)cc1 (configuration not stated)
 : 12	x
Cc1ccc(S(=O)(=O)N2CCC[C@H]2C(=O)Nc2ccc(-c3nnc4n3CCCCC4)cc2)cc1
 : 13	x

# (more compounds)
# Below each compound – Sa helicase inh	MgrA-DNA mod
Cc1cc(CNCc2nnc3ccccn23)c(C)n1-c1ccnn1C(C)C
 : 7	x
O=C(NCCc1ccc(Cl)cc1)c1cc2ccccc2oc1=O
 : x	-0.7
O=C(c1cc(-c2nnc(-c3ccc(Cl)cc3)o2)n(C2CC2)c1)c1ccccc1O
 : -21	x
O=C(CC1CC2CCC1C2)N(Cc1nnc(-c2ccccc2Cl)o1)C1CC1 (configuration not stated)
 : 3	x
COc1ccc(/C=C/C(=O)N2CCNC(=O)C2)c(OC)c1
 : -5	x
O=C1C=CC(=O)N1c1ccc2c(c1)OCO2
 : -2	-0.8
CCCOC(=O)C1C2C=CC3(CN(CCc4ccccc4)C(=O)C13)O2 (configuration not stated)
 : 11	x
O=C(COC(=O)c1cc(-c2ccccc2)nn1-c1ccccc1)Nc1cccc(F)c1
 : -1	-0.6
COc1cc(C(=O)O)cc2c1OCCO2
 : -15	x
CSc1nc2ccc(NC(=O)COc3ccccc3)cc2s1
 : 5	x
O=C(O)C1CCCCC1C(=O)N1CCCc2ccccc21 (configuration not stated)
 : 6	-1.4
Cc1ccc2nc(SCC(=O)O)cc(C)c2c1
 : 3	-3.0
O=c1[nH]nc(-c2ccccc2)c2c1-n1nnnc1NC2c1ccccc1 (configuration not stated)
 : 4	x
C1Cc2nn3c(c2C1)n1nc2c(c1n1nc4c(c31)CCC4)CCC2
 : 13	-2.6
CNS(=O)(=O)c1cccc(C(=O)OCC(=O)N(C)c2ccccc2)c1
 : -4	x
CCc1c(C(=O)NC(C)C2CCCO2)csc1C (configuration not stated)
 : -1	-1.6
